ClpP mod: qHTS Assay for Activators of ClpP | purified B. subtilis ClpP, FRET peptide cleavage, 20 min | Potency, µM (highest dose often 57.5 µM), for the others: top-dose activity change, negative = active | 340,000 compounds, 1.9% hits | AID 651965, 2013; active = well fitted falling curve with a large enough effect; inconclusive = small, poorly fitted or top-dose-only effect; inactive = no such curve, though single readings can be large or run the other way; further: potency means the concentration at half of the fitted maximal effect; the source files actives as falling curves though it sought activators and does not explain the sign; nearly all actives have a fitted effect of over 65% in size; many hits overshoot -100%
Target sequence (P80244 whole entry, looked up): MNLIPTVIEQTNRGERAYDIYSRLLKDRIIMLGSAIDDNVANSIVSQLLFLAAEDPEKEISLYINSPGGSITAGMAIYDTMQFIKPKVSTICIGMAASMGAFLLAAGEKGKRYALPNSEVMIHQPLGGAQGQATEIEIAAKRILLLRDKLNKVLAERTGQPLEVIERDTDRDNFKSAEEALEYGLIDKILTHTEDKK
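Buffer: 100 mM Tris/HCl pH8, 100 mM KCl, 0.05% low protease BSA, 2.5% glycerol, 0.01% Tween-20. ClpP 10 microg/mL final; 20 min RT; delta FRET normalized to ADEP and DMSO controls.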
Menin MLL FP FL: inhibitors of human menin-MLL interaction, wild-type MLL peptide | FP activity change, % at 61.4 µM | Fluorescence polarization, fluorescein-MLL peptide displacement from menin | 290,000 tested, under 10 active; inconclusive = falling polarisation curve, or a change in total fluorescence; inactive = total fluorescence flat and polarisation flat or rising; no compound was filed as active; the % refers to the polarisation; negative = inhibition;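 further: % of control where 0% means no effect; inhibitors lower the polarisation; unlabelled MLL peptide was the positive control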
gsp ag: activates gsp, the McCune-Albright syndrome mutation | gsp mutant cells, cAMP HTRF, 30 min; control for the full effect not named in the record | Potency, µM (doses to about 76.9 µM), inactives show at the highest dose activation (cAMP increase), actives largely listed as activators | 340,000 compounds, 0.13% hits | AID 624287; active = well fitted activation curve with a large enough effect; inconclusive = small, poorly fitted or top-dose-only effect, or another doubt; inactive = no such curve, though single readings can be large or run the other way; cell line not stated here;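 further: phosphodiesterase inhibitor Ro 20-1724 added with compounds to block cAMP breakdown; potency means the concentration at half of the fitted maximal effect; nearly all actives have a fitted effect of over 60% in size; about a fifth of the inactives were tested at one dose only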
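Cells in DMEM/10% FBS with G418 were pretreated with compounds in DMSO plus […] (300 uM stock) for 30 min at 37C. cAMP was measured by HTRF (cAMP-d2 plus anti-cAMP antibody-K) after 30 min at room temperature.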
gsp antagonist: antagonizes gsp, the McCune-Albright syndrome mutation; gsp-mutant cells, cAMP HTRF, 30 min; control for the full effect not named in the record; Potency, µM (titrated, usually from 76.9 µM), for the others: top-dose activity change, negative = inhibition, hits mostly inhibitors; 340,000 compounds, 0.4% hits; active = falling curve of any shape with a large fitted effect; inconclusive = falling curve, mostly with a smaller effect; inactive = flat or rising curve; cell line not stated here;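 further: intracellular cAMP measured with PDE inhibitor Ro 20-1724 present during compound exposure; potency means the concentration at half of the fitted maximal effect; on the % scale 0 is the no-effect control and ±100 the full control effect; nearly all actives have a fitted effect of over 65% in size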
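G418-selected cells were plated in DMEM/10% FBS for 16-24 h at 37C, then treated with compounds plus the PDE inhibitor […] (300 uM solution added) for 30 min at 37C. Intracellular cAMP was measured by HTRF after 30 min lysis at room temperature.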
TRPML1 ag: agonists of human TRPML1 channel | AID 624414 | TRPML1-expressing cells, Ca2+ dye fluorescence, FDSS; host cell line not named in the record; reference of the full effect not given here | Q9GZU1 | activation, % (concentration not given with the values) | 410,000 compounds, 0.12% hits; in the data active = activation above about 50%; inconclusive = about 30% to 50%; inactive = below about 30%; further: 0% is about no effect; the text of the record puts the active cut at 80%
Target sequence (Q9GZU1 whole entry, looked up): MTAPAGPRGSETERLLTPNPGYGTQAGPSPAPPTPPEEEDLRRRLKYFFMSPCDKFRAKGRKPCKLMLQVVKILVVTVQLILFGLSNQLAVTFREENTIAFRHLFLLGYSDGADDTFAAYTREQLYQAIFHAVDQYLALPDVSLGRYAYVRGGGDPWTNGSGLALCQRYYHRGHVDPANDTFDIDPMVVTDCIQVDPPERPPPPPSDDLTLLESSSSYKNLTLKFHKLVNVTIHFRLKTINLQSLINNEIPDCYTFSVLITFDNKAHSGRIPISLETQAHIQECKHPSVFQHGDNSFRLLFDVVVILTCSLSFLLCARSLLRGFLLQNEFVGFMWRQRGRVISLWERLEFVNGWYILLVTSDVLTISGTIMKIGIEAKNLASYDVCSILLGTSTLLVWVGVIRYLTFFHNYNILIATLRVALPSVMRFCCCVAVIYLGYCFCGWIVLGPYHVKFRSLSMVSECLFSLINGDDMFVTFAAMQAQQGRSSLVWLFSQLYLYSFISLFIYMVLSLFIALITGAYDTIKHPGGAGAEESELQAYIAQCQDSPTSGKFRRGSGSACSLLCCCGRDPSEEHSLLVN
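Agonist activity was taken from a 110 s kinetic Ca2+ dye read on the FDSS after pinning compounds onto TRPML1-DL cells. The cells were seeded at 1,500/well with Tet inducer, incubated about 16 h, then dye-loaded at room temperature.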
TRPML1 blocker: human mucolipin-1 channel inhibition; 390,000 compounds, 0.02% hits; activity change, negative = inhibition, % (no concentration beside the values); TRPML1-inducible cells, Ca2+ dye fluorescence, FDSS; hits give low values; inhibition of EC80 agonist-evoked calcium signal; AID 624415; Q9GZU1; in the data active means activity change below about -50%; inconclusive means about -30% to -50%; inactive means above about -30%;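 further: stimulus is agonist 54-4 at its EC80 concentration; on the % scale 0 is the no-effect control and ±100 the full control effect; compound concentration not given in the record; the text of the record puts the active cut at -80%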
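TRPML1-DL cells, Tet-induced overnight (~16 h, 37 °C) at 1,500 cells/well, were loaded with Ca8 no-wash dye plus quencher for 45-90 min at room temperature. Compounds were pinned during FDSS kinetic reading; agonist 54-4 at EC80 (4 uM final) then added.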
Active calls of the source: *; ? = inconclusive; . = not tested or not shown; [ ] = another dose, or the depositor's remark.

Every second line gives: ClpP mod	Menin MLL FP FL	gsp ag	gsp antagonist	TRPML1 ag	TRPML1 blocker
- O=C(Nc1ccccc1N1CCN(c2ccccc2)CC1)c1ccccc1F
→ .	0.8	-9.5%[15.4 µM]	-4.1%	1.6	-4.9
- CC(=O)N1CCc2cc(S(=O)(=O)NC(Cc3ccccc3)C(=O)Nc3ccc(Cl)cc3)ccc21 (centres undefined)
→ -0.2%	.	.	.	0.3	-11.0
- CC(C)N(Cc1cnn(C)c1)Cc1nc(Cc2ccccc2Cl)no1
→ .	5.5	11.9%	7.1%	-0.7	6.3
- COc1ccc(-c2c(C#N)c(N)nc3sc(C(=O)c4ccc(C)cc4)c(N)c23)cc1
→ 2.4%	?	13.9%	-18.2%	2.0	-1.6
- COC(=O)CSc1nnc(-c2sc3ccccc3c2Cl)o1
→ ?	0.2	13.0%	?	-0.8	0.0
- CC1CC(=O)N(c2ccc(NCc3ccc(Cl)cc3)c([N+](=O)[O-])c2)C1=O (centres undefined)
→ 1.5%	-2.7	-4.9%	-2.6%	1.1	25.2
- CCOC(=O)c1sc(NC(=O)CSc2n[nH]c(-c3ccncc3)n2)c(C#N)c1C
→ -3.5%	5.9	-0.6%	?	0.0	36.9
- O=C(NCCO)c1ccc(Oc2ccc(C(F)(F)F)cc2[N+](=O)[O-])cc1
→ .	0.4	5.4%[15.4 µM]	8.2%	3.0	35.9
- Cc1ccc(CO)cc1Nc1ncnc2onc(-c3ccc(F)cc3)c12
→ 5.1%	.	.	.	0.4	41.3
- CN(C)S(=O)(=O)c1ccc(N2CCCC2)c(C(=O)N2CCN(c3ccc([N+](=O)[O-])cc3)CC2)c1
→ .	3.0	0.3%[15.4 µM]	-26.1%	-0.6	9.8
- CC1=NCC(C)c2ccccc21 (centres undefined)
→ -7.5%	.	23.0%	.	0.4	-8.1
- COc1cc(-n2c(=O)c3ccccc3n(Cc3cccc(F)c3)c2=O)cc(OC)c1OC
→ -3.1%	2.8	-45.4%[inhibitor]	1.2%	0.8	5.8
- Cc1onc(-c2c(Cl)cccc2Cl)c1-c1nc2cc(Cl)ccc2c(=O)o1
→ -8.3%	1.2	-22.0%	-2.2%	2.1	20.7
- COc1ccc(Cl)cc1NC(=O)CSc1nc(=O)n(Cc2ccco2)c2c1CCC2
→ -2.6%	.	.	.	0.7	27.3
- CC(C)c1nc2sc3c(c2c(=O)[nH]1)CC(C)(C)OC3
→ 0.8%	-3.7	3.2%	7.4%	0.8	-12.8

4 entries picked at random from those above:
Every second line gives: ClpP mod	Menin MLL FP FL	gsp ag	gsp antagonist	TRPML1 ag	TRPML1 blocker
- CCOC(=O)c1sc(NC(=O)CSc2n[nH]c(-c3ccncc3)n2)c(C#N)c1C
→ -3.5%	5.9	-0.6%	?	0.0	36.9
- COC(=O)CSc1nnc(-c2sc3ccccc3c2Cl)o1
→ ?	0.2	13.0%	?	-0.8	0.0
- CC1=NCC(C)c2ccccc21 (centres undefined)
→ -7.5%	.	23.0%	.	0.4	-8.1
- Cc1ccc(CO)cc1Nc1ncnc2onc(-c3ccc(F)cc3)c12
→ 5.1%	.	.	.	0.4	41.3

(further entries)
Every second line gives: ClpP mod	Menin MLL FP FL	gsp ag	gsp antagonist	TRPML1 ag	TRPML1 blocker
- COCC#Cc1ccc2c(c1)O[C@@H](CN(C)S(=O)(=O)c1cccc(F)c1)[C@@H](C)CN([C@H](C)CO)S2(=O)=O
→ -0.6%	.	-4.1%	.	0.3	1.6
- COc1ccc(C(CNC(=O)c2cccc(S(=O)(=O)N3CCCC(C)C3)c2)N(C)C)cc1 (centres undefined)
→ -1.4%	.	7.1%	0.7%	-0.3	16.5
- CCOC(=O)C(NCc1ccccc1OC)(NC(=O)c1ccccc1)C(F)(F)F (centres undefined)
→ 0.6%	1.8	-6.5%	3.9%	0.1	0.8
- Cc1ccc(-c2nc3ncccc3o2)cc1NC(=O)c1ccco1
→ -26.6%	.	-20.5%	-8.8%	0.0	-0.2
- CCN1c2ccccc2NC2N=C(OC)C(c3ccccc3)C21 (centres undefined)
→ -3.0%	5.2	?	4.9%	1.9	-1.1
- C=CCNC(=O)C1CCN(c2ccc(S(=O)(=O)N3CCOCC3)cc2[N+](=O)[O-])CC1
→ 0.3%	-7.5	28.7%	-3.6%	2.9	13.8
- COC(=O)/C=C/c1ccc(-n2cncn2)cc1
→ .	-4.5	37.2%	-2.8%	-0.2	8.5
- Cc1ccc(NC(=O)C2(NC(=O)c3ccccn3)CCCCC2)cc1Br
→ -3.1%	.	-0.4%	-13.0%	1.0	4.6
- COc1ccc(OC)c(NC(=O)CS(=O)(=O)Cc2ccccc2)c1
→ -1.0%	-0.4	-27.2%	-2.0%	1.4	26.0
- CC(=O)C1=C(C)NC(SCC(=O)c2ccc(Cl)cc2Cl)=C(C#N)C1c1ccco1 (centres undefined)
→ -2.1%	?	4.2%	-6.0%	1.7	-5.1
- CC(Oc1ccccc1)C(=O)Nc1nnc(S(=O)(=O)N(C)c2ccccc2)s1 (centres undefined)
→ 1.6%	.	4.1%	?	8.8	-10.9
- c1ccc(CN2CCN(Cc3c[nH]c4ccccc34)CC2)cc1
→ 0.3%	0.3	-3.4%[15.4 µM]	-9.8%	-0.1	10.6
- COc1ccc(NC(=O)C2CCN(S(=O)(=O)c3ccc4c(c3)CCCC(=O)N4)CC2)c(OC)c1
→ -1.6%	.	.	.	1.3	0.0
- Cc1ccc(-n2c(C)cc(/C=C3\SC(=O)NC3=O)c2C)cc1
→ -0.4%	-2.7	-16.9%	-8.3%	1.4	-8.3
- CN(C(=O)CCN1C(=O)/C(=C/c2ccc(F)cc2)SC1=S)C1CCS(=O)(=O)C1 (centres undefined)
→ -1.8%	.	-2.8%	.	0.1	-2.5

Some of the entries so far, as labelled records.
> c1ccc(CN2CCN(Cc3c[nH]c4ccccc34)CC2)cc1
- ClpP mod: 0.3%
- Menin MLL FP FL: 0.3
- gsp ag: -3.4%[15.4 µM]
- gsp antagonist: -9.8%
- TRPML1 ag: -0.1
- TRPML1 blocker: 10.6

> COc1ccc(NC(=O)C2CCN(S(=O)(=O)c3ccc4c(c3)CCCC(=O)N4)CC2)c(OC)c1
- ClpP mod: -1.6%
- Menin MLL FP FL: .
- gsp ag: .
- gsp antagonist: .
- TRPML1 ag: 1.3
- TRPML1 blocker: 0.0

Other structures follow.
Every second line gives: ClpP mod	Menin MLL FP FL	gsp ag	gsp antagonist	TRPML1 ag	TRPML1 blocker
- CN(C(=O)CSc1nc(C2CCCC2)nc2c1c(=O)n(C)c(=O)n2C)c1ccccc1
→ 0.6%	.	.	.	0.0	37.7
- O=C(COC(=O)c1ccc(F)c(S(=O)(=O)N2CCOCC2)c1)NCCc1ccccc1
→ -2.9%	.	-5.0%	3.2%	1.2	-13.0
- COc1ccc(CNC(=O)CCn2cccc2)cc1
→ -0.9%	1.4	20.4%	4.6%	0.1	-1.2
- Cc1cccc(Cc2cnc(NC(=O)c3ccc4c(c3)CC(c3ccccc3)OC4=O)s2)c1 (centres undefined)
→ -2.9%	.	.	.	0.5	14.6
- CC(C)(CNC(=O)c1ccc(NS(=O)(=O)c2ccc(F)c(F)c2)cc1)N1CCOCC1
→ 0.5%	.	?	-11.1%	-0.4	8.2
- COc1ccc2c(c1)CCCN2S(=O)(=O)c1ccc(Cl)cc1
→ -0.6%	-0.7	-0.7%	-23.0%	2.7	78.7
- CC(=O)N1CCN(C(=O)c2ccc(NS(=O)(=O)c3ccc4c(c3)OCCO4)cc2)CC1
→ -2.1%	.	-16.0%	3.3%	1.8	-26.5
- O=C(c1ccco1)N1CCN(C(=O)c2[nH]ncc2[N+](=O)[O-])CC1
→ 0.2%	3.0	-3.6%[15.4 µM]	7.8%	0.5	-3.2
- COc1ccccc1-c1nnc(SCC(=O)N2CCCC2)o1
→ .	-3.2	16.1%[15.4 µM]	-2.4%	0.8	-1.9
- Cc1ccc(SCC(=O)NCCN2C(=O)CSC2=O)c(C)c1
→ -5.6%	4.1	1.8%	-7.6%	0.0	1.1
- O=S(=O)(Cc1nnnn1-c1ccc(Br)cc1)c1ccc(F)cc1
→ 1.0%	.	-41.1%[inhibitor]	3.4%	0.0	7.3
- CCCCSc1cc(C)nc(N)n1
→ .	0.7	13.1%[15.4 µM]	-0.4%	-1.2	-0.5
- COc1cc(/C=C2\SC(=O)N(Cc3ccc(F)cc3)C2=O)cc([N+](=O)[O-])c1O
→ .	0.0	?	-30.9%	0.9	-10.3
- CCNc1nc(N)nc(Oc2ccc(OCc3ccccc3)nn2)n1
→ 0.7%	5.9	-3.0%	8.9%	-0.6	11.5
- Cc1ccc(S(=O)(=O)c2nnn3c2nc(N2CCOCC2)c2ccccc23)c(C)c1
→ -5.6%	.	5.8%	-6.3%	-0.2	-6.3
- CNC(=O)C(=O)N/N=C/c1ccc(Br)cc1
→ -0.1%	-3.4	?	-5.1%	0.9	-1.7
- O=c1ccc(-c2ccc([N+](=O)[O-])cc2)nn1-c1ccccc1
→ .	-3.0	-4.4%[15.4 µM]	-9.8%	1.4	1.8
- CN(C)c1nc(N)nc(-c2ccco2)n1
→ -0.7%	0.4	9.3%	-2.7%	-0.8	5.4
- O=C(Nc1ccncc1)c1cccs1
→ 0.5%	0.4	-6.7%	2.0%	-0.2	-4.0
- COc1ccccc1N1CCN(S(=O)(=O)CCNC(=O)C23CC4CC(CC(C4)C2)C3)CC1
→ -0.5%	0.1	-19.6%	-8.5%	4.0	-8.2
- COc1ccc(Cl)cc1NC(=O)CN1CCN(S(=O)(=O)c2ccc(F)cc2)CC1
→ .	-1.2	-4.3%[15.4 µM]	-19.4%	0.2	1.5
- CCOc1ccc(NC(=O)CN2C(=O)C(C)SC(C)C2=O)cc1 (centres undefined)
→ .	-5.9	6.5%[15.4 µM]	11.2%	0.1	11.7
- Cc1ccc(CNC(=O)C2CCC(=O)N(Cc3ccccc3F)C2)s1 (centres undefined)
→ -0.7%	-0.6	4.3%	6.9%	-0.2	12.2
- COCCN(C(=O)c1c(C)noc1C)c1c(N)n(CC(C)C)c(=O)[nH]c1=O
→ -2.8%	.	-7.9%	8.2%	-0.3	-2.5
- O=C(Cc1cccs1)N/N=C/C=C/c1ccccc1
→ 0.6%	-1.4	?	16.5%	-0.1	9.3
- CC(C)c1ccc(NC(=O)C2=CC=CN3CCS(=O)(=O)N=C23)cc1
→ -1.3%	.	-9.6%[15.4 µM]	4.6%	-0.1	-13.8
